Source: PubChem
Mtb growth = Mycobacterium tuberculosis H37Rv growth inhibition, putative kinase inhibitor library, confirmatory dose response (AID 2842). 24,000 compounds, 5.2% hits. one-dose inhibition, % at 10 µg/mL; IC90 in µg/mL for titrated hits. M. tuberculosis H37Rv growth inhibition; higher % means a stronger effect; some inactives read as strong as hits;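 active = confirmed in a dose series; inconclusive = mostly over 85% at the one dose but not retested; inactive = below 85% or not confirmed; about a fifth of its hits are not listed in these tables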;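 also: bacteria incubated one week before Alamar blue readout; 0% = bacteria only wells and 100% = bacteria with high antibiotic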
Active calls of the source: *; u = inconclusive. An excerpt; the hit share may differ from the screen's.

SMILES | Mtb growth
CC1CC(C)CN(S(=O)(=O)c2ccc(C(=O)Nc3nc(-c4ccc(Br)s4)cs3)cc2)C1 (stereo not drawn) | -1%
CCN1CCc2c(sc(NC(=O)c3cc4cc([N+](=O)[O-])ccc4s3)c2C(N)=O)C1 | 5%
Cc1cccc(Cn2cc(S(=O)(=O)c3ccc(Cl)cc3)c(=O)c3cc4c(cc32)OCO4)c1 | -1%
CCC(C)Nc1nc2c(c(=O)[nH]c(=O)n2C)n1CC(O)COc1ccccc1 (stereo not drawn) | 0%
Cc1cccc(-n2ccnc2SCC(=O)Nc2ccc3c(c2)OCCO3)c1C | 12%
CC1CCCN(S(=O)(=O)c2ccc(C(=O)Nc3cccc(Cl)c3Cl)cc2)C1 (stereo not drawn) | -3%
CCOC(=O)c1nn(-c2ccc(F)cc2)c(=O)c2c(NC(=O)c3ccc(-c4ccccc4)cc3)scc12 | -3%
COc1cc(OC)cc(C(=O)Nc2nc3ccc(OC)cc3s2)c1 | 6%
CC1CCN(S(=O)(=O)c2ccc(C(=O)Nc3nc4ccc5ccccc5c4s3)cc2)CC1 | 66%
O=C(CCn1c(=O)[nH]c2ccsc2c1=O)Nc1ccc(Oc2ccccc2)cc1 | 0%
COc1cc(OC)cc(C(=O)NCCc2cc3ccc(C)cc3[nH]c2=O)c1 | -11%
Cc1c(C(=O)Nc2nnc(-c3ccc(F)cc3)s2)cccc1[N+](=O)[O-] | -5%
CCOC(=O)c1nn(-c2ccccc2)c(=O)c2c(NC(=O)Cc3ccc(OCC)cc3)scc12 | -4%
O=C(Nc1c(C(=O)Nc2ccc3c(c2)OCCO3)oc2ccccc12)c1ccccc1F | -10%
CCN(CC)S(=O)(=O)c1ccc(C(=O)Nc2nnc(-c3ccccc3)s2)cc1 | 7%
CC(=O)C(C)n1c(=O)c2c(nc3n(-c4ccccc4)c(C)cn23)n(C)c1=O (stereo not drawn) | -15%
O=C(CSc1nc(-c2cccc(F)c2)[nH]c1-c1ccccc1)Nc1ccc2c(c1)OCCO2 | 7.9µg/mL*
CCOC(=O)c1nn(-c2ccc(F)cc2)c(=O)c2c(NC(=O)C(C)(C)C)scc12 | -8%
CC(C)(C)c1ccc(-c2csc(NC(=O)c3ccc4c(c3)OCCO4)n2)cc1 | 79%
O=C1NC(=Nc2ccccc2Cl)S/C1=C\c1cccs1 | 79%
CC1Cc2nc(SCC(=O)Nc3ccc(Br)cc3)n(C)c(=O)c2S1 (stereo not drawn) | 79%
O=C(CC1CCCC1)Nc1c(C(=O)Nc2ccccc2)oc2ccccc12 | -1%
CC(=O)Cc1nsc(NC(=O)c2ccc(-c3cccc(Cl)c3)o2)n1 | -12%
COc1cccc(-c2noc(-c3cc(C(C)C)[nH]n3)n2)c1OC | 11%
Cc1ccc2cc(CCNC(=O)c3ccc(C(C)(C)C)cc3)c(=O)[nH]c2c1 | 1%

Remaining list, next part:
SMILES | Mtb growth
O=C(O)Cc1ccc(-n2c(O)c(C3=c4ccccc4=NC3=O)sc2=S)cc1 | 0%
O=C(CSc1ccc(-c2ccc(-n3ccnc3)cc2)nn1)Nc1nccs1 | -6%
COc1ccc(-c2nc3n(n2)C(c2ccc(Cl)cc2)C(C(N)=O)=C(C)N3)cc1 (stereo not drawn) | 60%
Cc1ccc(C)c(Nc2nncc(=O)[nH]2)c1 | -5%
O=C1CC(Nc2ccc(N3CCOCC3)cc2)C(=O)N1Cc1ccccc1 (stereo not drawn) | 1%
O=C(CSc1nnc(Cc2cc(=O)[nH]c(=O)[nH]2)n1-c1ccc(Cl)cc1)N1CCCCCC1 | -5%
CCNC(=O)c1c(NC(=O)c2snnc2CC)sc2c1CCCC2 | 0%
Cc1ccc(-c2nnc3c4cc5c(cc4n(Cc4ccc(Cl)cc4)cc2-3)OCO5)cc1 | 9%
Nc1ncnc(N2CCN(c3ccccc3)CC2)c1[N+](=O)[O-] | -1%
COc1ccc(C(=O)Nc2nc3c(s2)CCCC3)cc1OC | 23µg/mL*
CCOc1cc(-c2nnc(NC(=O)c3cccc(OC)c3)o2)cc(OCC)c1OCC | -9%
COc1ccc2nc(N3CCc4ccccc4C3)sc2c1 | 80%
Cc1ccc(NC(=O)CN2C(=O)C(=O)c3ccccc32)c(C)c1 | -9%
COc1ccc2nc(-c3ccc(F)c(NC(=O)c4cccc(OC)c4OC)c3)cn2n1 | 0%
CCOc1ccc(C(=O)Nc2sc3c(c2C(=O)OC)CC(C)(C)NC3(C)C)cc1 | 8%
Nc1ncnc(Nc2cccc(C(F)(F)F)c2)c1[N+](=O)[O-] | 5%
CCCCOc1ccc(C(=O)Nc2nnc(-c3ccccn3)o2)cc1 | 12µg/mL*
Cn1c(=O)c2c(SCc3ccc(C(F)(F)F)cc3)nc(-c3ccco3)nc2n(C)c1=O | 7%
COc1cccc(C(=O)Nc2nc(-c3ccc(Cl)cc3Cl)cs2)c1 | 11%
O=C1/C(=C/C=C/c2ccco2)CC/C1=C\C=C\c1ccco1 | -32%
Cc1ccc(S(=O)(=O)NC(C(=O)Oc2ccc3c(c2)oc(=O)c2ccccc23)C(C)C)cc1 (stereo not drawn) | -4%
O=C(Nc1nnc(-c2ccc(Cl)cc2)s1)c1cccc(F)c1 | 19%
CSc1ccc2nc(Nc3nnc(-c4ccccc4)o3)sc2c1 | 10%
O=C(Nc1nc(-c2ccccc2)c(C(=O)c2ccccc2)s1)c1cccc(F)c1 | 12%
CCOC(=O)c1nn(-c2ccc(C)cc2)c(=O)c2c(NC(=O)C3c4ccccc4Oc4ccccc43)scc12 | -10%

Sorted by molar mass (largest number first): part of the list above.
SMILES | Mtb growth
COc1ccc(-c2nc3n(n2)C(c2ccc(Cl)cc2)C(C(N)=O)=C(C)N3)cc1 (stereo not drawn) | 60%
O=C1CC(Nc2ccc(N3CCOCC3)cc2)C(=O)N1Cc1ccccc1 (stereo not drawn) | 1%
CSc1ccc2nc(Nc3nnc(-c4ccccc4)o3)sc2c1 | 10%
CCCCOc1ccc(C(=O)Nc2nnc(-c3ccccn3)o2)cc1 | 12µg/mL*
COc1ccc(C(=O)Nc2nc3c(s2)CCCC3)cc1OC | 23µg/mL*
COc1ccc2nc(N3CCc4ccccc4C3)sc2c1 | 80%
O=C1/C(=C/C=C/c2ccco2)CC/C1=C\C=C\c1ccco1 | -32%

Other results:
SMILES | Mtb growth
CC(=O)Oc1ccc(N2C(=O)CC(Sc3ccccc3C(=O)O)C2=O)cc1 (stereo not drawn) | -7%
COc1ccccc1-c1nnc(NC(=O)c2cc(=O)c3ccccc3o2)o1 | 43%
Cc1cccc(C(=O)Nc2nnc(-c3ccccc3C)s2)c1 | 53%
O=C(CSc1ccc2nnc(-c3ccc(Cl)cc3)n2n1)N1CCc2ccccc21 | -3%
CCOC(=O)CCC(=O)Nc1c(C(=O)Nc2cccc(F)c2)oc2ccccc12 | 3%
CC(=O)c1sc(Nc2nc3ccc(F)cc3s2)nc1C | u
CCOC(=O)c1nn(-c2ccc(F)cc2)c(=O)c2c(NC(=O)Cc3ccc(OCC)cc3)scc12 | -10%
CCOc1ccc2nc(N(CCCn3ccnc3)C(=O)Cc3ccc(F)cc3)sc2c1 | 3.1µg/mL*
Cc1nnc(NC(=O)CSc2cn(Cc3cccc(F)c3)c3ccccc23)s1 | -7%
COc1cccc2c(=O)n(CC(=O)Nc3cccc(F)c3)ccc12 | 0%
Cc1cc(C)cc(NS(=O)(=O)c2cc3c4c(c2)CCN4C(=O)CC3)c1 | 2%
Nc1nc(SCC(=O)N2CCCCCC2)[nH]c(=O)c1NC(=O)c1ccc(Cl)cc1 | -14%
COc1ccc(C(=O)Nc2c(N)nc(SCC(=O)Nc3cccc(C)c3)[nH]c2=O)cc1OC | 0%
Cc1ccc(NC(=O)c2oc3ccccc3c2NC(=O)CC(C)C)cc1 | 3%
O=C(CSc1c[nH]c2ccccc12)Nc1ccc2c(c1)OCCO2 | 24%
COc1ccc(Nc2ncnc(N)c2[N+](=O)[O-])cc1Cl | 10%
COc1ccc2cc(CCNC(=O)c3cc(Br)ccc3Cl)c(=O)[nH]c2c1 | 22%
Cc1ccc(-n2c(=O)[nH]c3c(C(N)=O)nc(-c4ccc(OCc5ccccc5)cc4)nc32)cc1C | 2%
Nc1ncnc(Nc2ccccc2C(F)(F)F)c1[N+](=O)[O-] | 9%
Cc1ccc(C)c(-c2nnc(NC(=O)C3CCN(S(=O)(=O)c4ccc(Cl)cc4)CC3)o2)c1 | 0%
COc1ccccc1NC(=O)c1oc2ccccc2c1NC(=O)Cc1ccc(OC)c(OC)c1 | 0%
COC(=O)c1c(NC(=O)c2cccs2)sc2c1CCN(C(C)=O)C2 | 1%
CCOC(=O)c1c(NC(=O)C(C)Sc2ncnc3ccccc23)sc2c1CCC2 (stereo not drawn) | -6%
Cc1ccc(/C(O)=C2\C(=O)C(=O)N(c3cc(C)on3)C2c2ccccc2)cc1 (stereo not drawn) | -4%
Cc1ccc(Cl)cc1-n1nnc(C(=O)Nc2nccs2)c1C | 8%

4 entries from above, field by field:
> Cc1ccc(C)c(-c2nnc(NC(=O)C3CCN(S(=O)(=O)c4ccc(Cl)cc4)CC3)o2)c1
  Mtb growth: 0%

> COc1ccccc1NC(=O)c1oc2ccccc2c1NC(=O)Cc1ccc(OC)c(OC)c1
  Mtb growth: 0%

> COC(=O)c1c(NC(=O)c2cccs2)sc2c1CCN(C(C)=O)C2
  Mtb growth: 1%

> CCOC(=O)c1c(NC(=O)C(C)Sc2ncnc3ccccc23)sc2c1CCC2 (stereo not drawn)
  Mtb growth: -6%

(list continues)
SMILES | Mtb growth
CCOc1ccc(C(=O)c2cn(Cc3cccc(C)c3)c3ccccc3c2=O)cc1 | -4%
COc1ccc(-n2c(=O)[nH]c3c(C(N)=O)nc(-c4ccccc4F)nc32)c(OC)c1 | -14%
COC(=O)c1ccccc1Nc1ncnc(N)c1[N+](=O)[O-] | 6%
CC(C)c1cc(-c2nc(-c3ccc4c(c3)OCO4)no2)n[nH]1 | 29%
CCOC(=O)C(C)Sc1nnc2[nH]c(=O)cc(C)n12 (stereo not drawn) | 8%
NC(=O)c1nc(-c2ccc(OCc3ccccc3)cc2)nc2c1[nH]c(=O)n2-c1ccc(F)cc1 | -4%
CCOC(=O)C1CCN(c2ncnc(N)c2[N+](=O)[O-])CC1 | 2%
Cc1ccc2cc(CCNC(=O)c3c(F)cccc3F)c(=O)[nH]c2c1 | 10%
C=CCn1c(SCC(=O)O)nnc1-c1ccc2c(c1)OCO2 | -17%
O=C(CN1C(=O)/C(=C\c2cccs2)SC1=S)Nc1ccccc1[N+](=O)[O-] | 0%
Cn1c2c(c(=O)[nH]c1=O)C(c1ccncc1)C1=C(CC(C)(C)CC1=O)N2 (stereo not drawn) | -6%
O=C(NCc1ccc(Cl)cc1)C(=O)Nc1cc2c3c(c1)CCC(=O)N3CCC2 | -1%
O=C(CSc1nnc2[nH]c(=O)ccn12)Nc1ccc2c(c1)OCCO2 | 50%
O=C(Nc1nc2ccc([N+](=O)[O-])cc2s1)c1cccc(F)c1 | 10%
O=C(NCc1ccc2c(c1)OCO2)c1c(O)nc2sccn2c1=O | 4%
C=CCc1cccc2cc(C(N)=O)c(=Nc3ccc(OC)cc3)oc12 | 12%
Cc1cccc(-c2nnc(NC(=O)COc3ccc(Cl)cc3Cl)s2)c1 | 8%
CCOC(=O)c1nn(-c2ccc(C)cc2)c(=O)c2c(NC(=O)c3ccccc3[N+](=O)[O-])scc12 | 9%
Oc1c(/C=C2\C=Nc3ccccc32)sc(=S)n1-c1ccccc1Br | 6%
COC(=O)CSc1nnc(CNC(=O)c2ccc(OC)cc2OC)n1C | -13%
C=CCn1c(SCCOC)nc2c1c(=O)[nH]c(=O)n2C | -1%
COc1ccc(CCNc2oc(COc3ccccc3Cl)nc2C#N)cc1OC | -3%
COc1ccc(S(=O)(=O)N2CCSC2c2ccc([N+](=O)[O-])cc2)cc1 (stereo not drawn) | 3%
Cc1nc2sc(C(c3ccc(F)c(F)c3)N3CCCC3)c(O)n2n1 (stereo not drawn) | -2%
Nc1nc(SCC(=O)Nc2cccc(F)c2)[nH]c(=O)c1NC(=O)c1ccc(Br)o1 | -9%

Remaining list, next part:
SMILES | Mtb growth
Cc1onc(-c2ccccc2Cl)c1C(=O)Nc1nnc(-c2ccc(F)cc2)s1 | 17%
CC1CCc2nc(NC(=O)c3ccc(C(=O)c4ccccc4)cc3)sc2C1 (stereo not drawn) | 6%
NC(=O)c1c(NC(=O)c2ccc(Cl)cc2)sc2c1CCCCC2 | 10%
COc1ccc(NC2CC(=O)N(c3ccccc3Cl)C2=O)cc1 (stereo not drawn) | 35%
Cc1ccc2c(c1)C(=O)OC(C(=O)Nc1cc(C)on1)C2 (stereo not drawn) | -13%
CCOC(=O)c1ccc2nc(Nc3nc4ccc(F)cc4s3)sc2c1 | 49%
O=C(O)c1cccnc1SC1CC(=O)N(CCc2ccccc2)C1=O (stereo not drawn) | -21%
O=C(CCSc1ccccc1)Nc1nc2c(cc3c4c(cccc42)CC3)s1 | 9%
CCOC(=O)c1nn(-c2ccc(F)cc2)c(=O)c2c(NC(=O)c3ccc(F)cc3)scc12 | -4%
CC(=O)Oc1ccc(/C=C(\C#N)c2nc(-c3ccc4c(c3)OCO4)cs2)cc1 | 1%
Cc1nc2ccccc2c(=O)n1-c1cccc(NC(=O)COc2ccc(Cl)cc2)c1 | 1%
CCN1CCN(CC(=O)Nc2ccc(Cl)c(Cl)c2)C(=O)C1=O | -3%
Cn1c(=O)c2c(nc(N3CCCCCC3)n2CCSc2nc3ccccc3s2)n(C)c1=O | 14%
O=C(COc1ccc(Cl)cc1)Nc1nc2ccc3ccccc3c2s1 | 18%
Cc1ccc(C)c(NC(=O)CSc2nc3c(oc4ccccc43)c(=O)n2-c2ccccc2)c1 | -1%
CCOC(=O)Cc1csc(NC(=O)CSc2nnc3ccccn23)n1 | 3%
COc1ccc(Nc2nc(Nc3ccc(C)c(C)c3)nc3nccnc23)cc1 | 3.9µg/mL*
